Rce1 inh: inhibitors of yeast Ras-converting enzyme; 290,000 compounds, 0.27% hits; calls only; Q03530; yeast membranes, quenched prenylated peptide cleavage fluorescence; AID 2563;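 active means fall in fluorescence gain of 50% or more versus controls, with final raw signal at or below 3038400; inconclusive means same 50% fall but final raw signal above 3038400; inactive means fall in fluorescence gain under 50%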;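 further: plate controls were neutral control wells for no effect and wells lacking membranes for full effect; tested at 10 µM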
CSC inhib: cancer stem cell inhibition; cancer stem cell-like cells viability, luminescence; inhibition, % at 7.5 µM; 300,000 compounds, 1.1% hits;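 active means mean at 75% or more and at least half the replicates too; inconclusive means mean and replicates disagree; tested in HMLE shEcad cells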;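 further: 0% = median of negative and 100% = median of positive control wells; the first replicate is given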
PABP polyA inh: blocks human PABP binding to poly(A) RNA. P11940. 290,000 compounds, 1% hits. fluorescence polarization. inhibition, % at 35 µM;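 active means 50% or more with normal probe brightness, or confirmed in later tests; inconclusive means above 50% with abnormal brightness, or retests that disagree; inactive means below 50% or failed in later tests; about a fifth of its hits are not listed in these tables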;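 further: calls also rest on retests at 20 µM and on dose response follow-up; controls were probe without protein and protein plus probe with vehicle; some compounds called inactive have numbers as strong as hits; many hits fall short of the cut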
Target sequence (P11940 whole entry, looked up): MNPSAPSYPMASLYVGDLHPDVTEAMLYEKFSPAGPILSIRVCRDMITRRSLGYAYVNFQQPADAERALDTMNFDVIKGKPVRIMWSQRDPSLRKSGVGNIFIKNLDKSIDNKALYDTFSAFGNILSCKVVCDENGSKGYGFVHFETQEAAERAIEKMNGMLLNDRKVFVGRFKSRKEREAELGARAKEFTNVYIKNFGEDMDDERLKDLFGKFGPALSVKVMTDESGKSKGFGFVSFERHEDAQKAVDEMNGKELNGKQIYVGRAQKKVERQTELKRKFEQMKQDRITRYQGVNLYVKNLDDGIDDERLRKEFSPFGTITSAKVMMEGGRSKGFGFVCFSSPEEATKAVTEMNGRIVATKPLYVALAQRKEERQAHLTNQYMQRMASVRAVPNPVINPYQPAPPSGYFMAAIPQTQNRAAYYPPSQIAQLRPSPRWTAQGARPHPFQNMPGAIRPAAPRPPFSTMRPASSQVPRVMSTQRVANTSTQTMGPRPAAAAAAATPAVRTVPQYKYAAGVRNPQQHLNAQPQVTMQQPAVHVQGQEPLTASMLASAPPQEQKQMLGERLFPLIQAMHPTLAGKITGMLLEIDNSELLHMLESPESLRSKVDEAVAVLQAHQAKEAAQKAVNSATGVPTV
HIV Env fusion: blocks HIV Env-driven cell-cell fusion; HeLa-JRFL Env/CEM21 cell fusion, luciferase; AID 651610; inhibition, % at 12.3 µM; 360,000 compounds, 1.1% hits;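 active means mean replicate inhibition score of at least 50 and every replicate individually at or above 50; inconclusive means only one of the two criteria met; inactive means mean below 50 and not all replicates reaching 50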;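 further: 0% = plate neutral controls and 100% = maraviroc near 300 nM; one replicate is shown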
Yeast UUG start: alters start codon recognition fidelity in yeast. AID 602363. S. cerevisiae UUG-firefly luciferase reporter, luminescence/redox ratio. activity score, % at 18.7 µM. 350,000 compounds, 0.13% hits;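 active means replicate mean at a twofold rise or more, about +100% in these data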;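 further: firefly luciferase made from a UUG start codon reports start codon fidelity; reporter light over untreated wells divided by growth signal over untreated wells; some hits fall short of that in this replicate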
eIF4H FP inh: inhibitors of RNA binding by human eIF4H; eIF4H fluorescence polarization binding assay; inhibition, % at 35 µM; 290,000 compounds, 0.94% hits; AID 2012;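 active means 50% or more with normal probe brightness, or confirmed in later tests; inconclusive means above 50% with abnormal brightness, or retests that disagree; inactive means below 50% or failed in later tests; about a fifth of its hits are not listed in these tables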;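 further: calls also rest on retests at 20 µM and on dose response follow-up; 0% = protein and probe with vehicle and 100% = probe without protein; strong numbers were not always called active; many hits fall short of the cut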
MT1-MMP act inh: MT1-MMP (human) activation inhibition | 360,000 compounds, 0.061% hits | P50281 | GFP/RFP ratio change, % at 20 µM | HT1080 RFP-PRO-GFP cells, GFP/RFP ratio fluorescence, overnight; percent of plate control window, DMSO zero;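 active means GFP/RFP ratio change of at least 30% with cell ATP level not reduced by more than half and red fluorescence within 50% of control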; further: strong numbers were not always called active
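Assay system: RFP-PRO-GFP reporter HT1080 cells; read-out basis: GFP/RFP fluorescence ratio; benchmarks: DMSO wells and RFP-L50D-GFP cells; doses: 20 µM single dose, 1% DMSO; schedule: overnight cell settling, then overnight compound exposure, 37 °C, 5% CO2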
eIF4H FP inh retest: second read-out of eIF4H FP inh, no call of its own (marks repeat the call); inhibition, %; compound at 20 µM; confirmation average;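 mean of two retest wells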
PABP polyA inh retest: also measured in PABP polyA inh; calls as there; inhibition, %; compound at 20 µM; confirmation repeats;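 mean of two retest wells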
MT1-MMP act inh RFP: recorded beside MT1-MMP act inh, whose call it bears; RFP signal change, %; measured here: RFP expression control read;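 0 = vehicle wells; hits needed this value within 50% of zero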
Starred values were filed as active, the others as inactive; i = inactive; ? = inconclusive; nt = no result given; + = active, no number; & = joins results of further samples. A portion of the library, so the mix of outcomes need not match the whole.

SMILES	Rce1 inh	CSC inhib	PABP polyA inh	HIV Env fusion	Yeast UUG start	eIF4H FP inh	MT1-MMP act inh	MT1-MMP act inh RFP	others
COc1ccc(N(CC(=O)Nc2ccc(C(N)=O)cc2)S(=O)(=O)c2ccc(C)c([N+](=O)[O-])c2)cc1	i	-17	1	-44	nt	-4	-3	-3
Cc1c(C(=O)N2CCN(CCc3ccccc3)CC2)oc2ccccc12	i	nt	-7	21	-6	12	-2	-5
COc1ccccc1-c1ccc(/C=C2/C=C(C)OC2=O)o1	i	0	-2	-71	nt	34	-5	6
NC(=O)COc1ccc(C(=O)NCC2(N3CCOCC3)CCCCC2)cc1	nt	nt	nt	0	-10	nt	-2	7
CCOC(=O)C[n+]1ccc2c([nH]c3ccccc32)c1C	+	-4	20	2	-21	24	-4	2
CCC(C)c1ccccc1NC(=O)COc1ccc(-c2nnco2)cc1 (centres undefined)	nt	nt	nt	1	0	nt	2	-1
COCCN1C[C@@H](CO)O[C@@H](n2cnc3c(NCCCO)ncnc32)C1	nt	nt	nt	-12	-13	nt	-4	-1
Cc1ccccc1NC(=O)c1ccc2c(c1)OCCO2	i	-9	-4	nt	-17	-1	2	4
Cc1[nH]nc2c1-c1nc3ccccc3nc1C(C)(C)C2	i	nt	-2	-56	nt	1	-4	-13
CCOc1ccc(N(CC(=O)N/N=C/c2ccc(OC(C)C)cc2)S(C)(=O)=O)cc1	i	-1	-3	9	-11	-13	1	0
Cc1ccc(NC(=O)CSc2nnc(CCNC(=O)OC(C)(C)C)o2)c(C)c1	i	-6	8	1	-12	-6	1	-1
CCOC(=O)Nc1c(C(=O)OC)[nH]c2cccc(OC)c12	i	-4	2	nt	4	4	1	1
CN(C(=O)c1ccco1)c1nc2c(s1)CCCC2	i	12	7	-311	-33	-3	-1	-2
Cc1ccc(N2C(=O)C3C(C(=O)c4ccccc4)=NN(c4ccccc4)C3C2=O)cc1 (centres undefined)	i	-5	-2	-11	-17	-5	-49	3
O=C1CC(c2ccc(O)cc2)Oc2cc(O)cc(O)c21 (centres undefined)	i	-3	8	-5	-5	-8	0	-3
CCc1c(C)nc(N2CCN(c3ccc(F)cc3)CC2)[nH]c1=O	i	0	0	-11	-8	2	6	-2
O=C(COC(=O)/C=C/c1ccc(C(F)(F)F)cc1)NCc1ccco1	i	nt	2	nt	-12	1	0	3
COc1cc2c(cc1NC(=O)CN(C)Cc1ccc(OC)c(OC)c1)oc1ccccc12	i	nt	6	4	-11	3	-7	-15
CS(=O)(=O)N1CCN(c2nc(-c3ccc(F)cc3)cs2)CC1	i	-8	-3	nt	-7	-2	4	-4
CC(C)Oc1cccc(C(=O)O)c1	i	-2	-6	-29	-2	-5	1	0
O=C(Cn1nc(-c2ccccc2F)ccc1=O)Nc1ccc(S(=O)(=O)N2CCCCCC2)cc1	i	8	-8	-5	nt	-6	6	-6
CC1CCN(C(=O)c2nc[nH]c2C(=O)OCCNC(=O)OC(C)(C)C)CC1	nt	-47	nt	4	-11	nt	-3	2
CC(C)(C)c1ccc(C(=O)NCC(=O)NNC(=O)c2ccccc2O)cc1	i	26	nt	-11	nt	nt	6	5
CN(C(=O)CSc1nnc(-c2c[nH]c3ccccc23)o1)C1CCS(=O)(=O)C1 (centres undefined)	i	-24	0	-26	nt	-15	0	-1
Cc1ccccc1N=C1Nc2ccccc2CS1	i	-1	-5	nt	-20	0	-9	-14
O/N=C/c1ccccc1OCc1ccc(Cl)cc1	i	1	10	?	-21	2	2	4
O=C(c1cc(N2CCOCC2)c(F)cc1[N+](=O)[O-])N1CCOCC1	i	1	-8	-5	-7	1	1	0
CCOc1cc(/C=C2/SC(=O)N(CC(=O)N3CCc4ccccc4C3)C2=O)ccc1OCC(=O)O	i	-8	10	nt	11	0	-1	2
COc1ccc2nc(NC(C)=O)sc2c1	i	14	-5	-90	-5	-5	2	0
CN(C)S(=O)(=O)c1ccc(NC(=O)c2cccnc2)cc1	i	-14	-2	nt	-19	4	4	2
CCN1C(=O)[C@H]2[C@@H](c3ccc(C)cc3)N3C(=O)N(c4ccc(C)cc4)C(=O)[C@@]3(Cc3ccccc3)[C@H]2C1=O	i	-8	0	-79	-18	9	-1	-4
Cn1c(CO)cnc1SCc1ccc(F)cc1	i	nt	-8	-6	nt	-13	2	4
COc1ccc(C(=O)Nc2cccc(C)n2)cc1S(=O)(=O)N1CCCc2ccccc21	nt	nt	nt	3	-15	nt	-11	-21
O=C(Nc1cccnc1)c1ccc(Cl)c(S(=O)(=O)N2CCCC2)c1	i	-14	-2	-8	10	-3	5	-2
O=C1Nc2ccccc2Cc2ccccc21	nt	nt	nt	-18	-5	nt	-4	-1
COc1cc(C(=O)Nc2cc(C(F)(F)F)ccc2N2CCOCC2)ccc1O	i	2	0	-6	nt	-9	5	5
O=S(=O)(Cc1ccc(Cl)cc1Cl)c1ccc(Cl)cc1	nt	nt	nt	-13	-9	nt	5	-5
COc1ccc(S(=O)(=O)N2CCC(C(=O)NCc3cccnc3)CC2)cc1C	i	11	9	1	-5	2	1	0
COC(=O)c1c(C)[nH]c(C(=O)OCC(=O)NC(C)(C)C)c1C	i	-1	-8	10	0	-1	4	-12
Clc1ccccc1Cc1noc(CN2CCN(c3cnccn3)CC2)n1	i	9	0	8	nt	2	-2	-3
C/C(=N\NC(=O)c1cccs1)c1cccnc1	i	7	1	-6	nt	2	-6	-3
Sc1ccccc1N=Cc1cccs1	nt	nt	nt	-89	-16	nt	0	2
O=c1cc(N2CCOCC2)cnn1-c1ccccc1	i	-18	-2	nt	-21	4	1	4
CC1Nc2ncnc(N3CCc4ccccc4C3)c2N(Cc2ccc(Br)cc2)C1=O (centres undefined)	i	69	nt	-19	-8&0	nt	-11&-11	1&-7
CC(=O)c1ccc2c(c1)N(C)c1ccccc1S2	i	9	12	-479	-44	-6	0	2
CCOC(=O)c1nn(-c2ccc(C)cc2)c(=O)cc1OCC(=O)N1CCN(c2ccccc2)CC1	i	4	nt	nt	nt	nt	-2	-4
COc1ccc(NC(=O)NC2CC3CCCC(C2)N3Cc2ccccc2)cc1 (centres undefined)	i	-8	8	-8	-6	4	-1	-2
CC(C)Cn1c(N)c(C(=O)COC(=O)c2ccccc2C(=O)c2ccccc2)c(=O)n(C)c1=O	nt	50	nt	-13	-18	nt	0	-8

Part of the list above in order of heavy-atom count, low to high:
SMILES	Rce1 inh	CSC inhib	PABP polyA inh	HIV Env fusion	Yeast UUG start	eIF4H FP inh	MT1-MMP act inh	MT1-MMP act inh RFP	others
COc1ccc(NC(=O)NC2CC3CCCC(C2)N3Cc2ccccc2)cc1 (centres undefined)	i	-8	8	-8	-6	4	-1	-2
CC1Nc2ncnc(N3CCc4ccccc4C3)c2N(Cc2ccc(Br)cc2)C1=O (centres undefined)	i	69	nt	-19	-8&0	nt	-11&-11	1&-7
CCOC(=O)c1nn(-c2ccc(C)cc2)c(=O)cc1OCC(=O)N1CCN(c2ccccc2)CC1	i	4	nt	nt	nt	nt	-2	-4

Returning to the listing, starting 7 compounds before the break.
SMILES	Rce1 inh	CSC inhib	PABP polyA inh	HIV Env fusion	Yeast UUG start	eIF4H FP inh	MT1-MMP act inh	MT1-MMP act inh RFP	others
Sc1ccccc1N=Cc1cccs1	nt	nt	nt	-89	-16	nt	0	2
O=c1cc(N2CCOCC2)cnn1-c1ccccc1	i	-18	-2	nt	-21	4	1	4
CC1Nc2ncnc(N3CCc4ccccc4C3)c2N(Cc2ccc(Br)cc2)C1=O (centres undefined)	i	69	nt	-19	-8&0	nt	-11&-11	1&-7
CC(=O)c1ccc2c(c1)N(C)c1ccccc1S2	i	9	12	-479	-44	-6	0	2
CCOC(=O)c1nn(-c2ccc(C)cc2)c(=O)cc1OCC(=O)N1CCN(c2ccccc2)CC1	i	4	nt	nt	nt	nt	-2	-4
COc1ccc(NC(=O)NC2CC3CCCC(C2)N3Cc2ccccc2)cc1 (centres undefined)	i	-8	8	-8	-6	4	-1	-2
CC(C)Cn1c(N)c(C(=O)COC(=O)c2ccccc2C(=O)c2ccccc2)c(=O)n(C)c1=O	nt	50	nt	-13	-18	nt	0	-8
Cc1ccccc1-n1c(=O)cc(N2CCc3ccccc3C2)[nH]c1=O	i	22	93*	nt	-19	79*	-6	6	eIF4H FP inh retest=97*;PABP polyA inh retest=81*
Cc1c(O)c(=O)n(-c2ccccc2)n1C	nt	-5	nt	-7	-7	nt	-2	2
O=C1CCCC(NCCCCCCNC2=C([N+](=O)[O-])C(=O)CCC2)=C1[N+](=O)[O-]	nt	nt	-2	-42	-5	9	-3	0
CCOC(=O)/C=C1\CN(Cc2cc(OC)c(OC)c(OC)c2)S(=O)(=O)c2ccccc21	i	-2	8	nt	-19	6	1	-23
Cc1ccc(NC(=O)Cn2c(O)c(N=NC(=O)c3ccncc3)c3ccccc32)cc1	i	-12	1	nt	nt	-10	7	3
O=C1c2ccccc2S(=O)(=O)c2cc(N3CCN(c4ccccc4)CC3)ccc21	i	8	nt	-7	nt	nt	nt	nt
COc1ccc(Nc2nc(N)nc(CSC(=S)N3CCCCC3)n2)cc1	i	-6	0	-10	-20	4	-3	-7
Cc1noc(C)c1COC(=O)c1ccccc1Sc1ccccc1C#N	i	-7	8	40	-2	-1	2	-10
NC(=O)c1c(NC(NC(=O)c2ccco2)(C(F)(F)F)C(F)(F)F)sc2c1CCCC2	i	-5	5	-15	-21	0	1	-2
NC(=O)CN1CCN(C(=O)Nc2ccccc2)CC1	i	0	-8	-2	-20	-7	9	7
Cc1ccc(-c2nnc(Oc3ccc(NC(=O)c4ccccc4)cc3)c3ccccc23)cc1	i	-3	-8	12	nt	-4	2	-7
Brc1ccc(/C=C/C=N/Nc2nc3ccccc3s2)cc1	i	12	-4	-123	1	-4	-1	5
Cc1[nH]c2ccccc2c1C(=O)C(=O)N1CCCc2ccccc21	i	-5	-13	1	nt	2	1	-1
COCCn1c(-c2cccc(Br)c2)nc2c(c(=O)c3ccccc3n2C)c1=O	i	-6	2	11	nt	0	-6	-2
COC(=O)c1c(NC(=O)CSc2nnc(C)c(=O)[nH]2)sc(C)c1C	i	6	-8	-10	nt	3	-3	0
CC(C)CC(=O)Nc1ccccc1-c1nnn(CC(=O)N2CCOCC2)n1	i	-8	-1	nt	-3	-5	-5	0
CCCC/C=C1\CCc2c([nH]c3ccccc23)C1=O	i	17	-4	-14	-9	1	5	-1
CC(C)CC(=O)Nc1ccc(C(=O)NN2C(=O)c3ccccc3C2=O)cc1	i	nt	-4	8	-5	-7	2	-2
Cc1ccc(NC(=O)C2CCCN2C(=O)NC2CCCCC2)c(C)c1 (centres undefined)	i	1	-8	11	-8	0	2	5
CC(=O)Nc1cc([N+](=O)[O-])ccc1OCc1ccccc1	nt	nt	nt	-1	-15	nt	4	-2
Cc1ccc(NC(=O)CS(=O)CC(=O)N(c2ccccc2F)C(C)C(=O)NC2CCCC2)cc1 (centres undefined)	i	-2	-2	4	8	14	-1	2
O=C(O)c1ccc(N2CCc3ccccc32)c([N+](=O)[O-])c1	i	-14	-1	19	-22	-5	0	-2
Cc1ccc(NC(=O)C2(C)CCN2C(=O)CC(c2ccccc2)c2ccccc2)cc1 (centres undefined)	nt	nt	nt	-14	-2	nt	-2	-3
CCOc1cc(N2CCOCC2)c(OCC)cc1NC(=O)COC(=O)[C@@H]1CCCN1S(=O)(=O)c1ccccc1F	i	nt	1	10	nt	3	0	3
